Mtb bLac sens = beta-lactam sensitization of Mtb H37Rv; M. tuberculosis H37Rv growth with meropenem, percent inhibition; hits of this screen are not shown here; inhibition, % at 25 µM; actives 0.27% (n = 330,000); AID 434955;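 active = about 74% or more and at least 40 points above the plate without the antibiotic, then above 30% in a dose series; inconclusive = first-round hits that could not be retested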;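 note: growth measured after seven days incubation then overnight dye step; 0% = bacteria only wells and 100% = bacteria with antibiotic; twin plates without the antibiotic show which effects depend on it; some results filed as inactive read as strong as hits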
* hit, by the source's call; ? = inconclusive. These rows are one share of the data (hit frequency here may not be typical).

SMILES | Mtb bLac sens
O=C(c1ccc(F)cc1)N1CCN(c2ccccn2)CC1 | 5.3
COC(=O)C1=C(c2ccc(OC(F)(F)F)cc2)C[C@@H]2CC[C@H]1N2C(=O)NCC1CC1 | -3.8
O=C(CN1CCN(c2cccc(C(F)(F)F)c2)CC1)N(C1CC1)C1CCS(=O)(=O)C1 (stereo not given) | -3.9
Cc1cccc(NC(=O)COc2ccc(-c3nn(C)c(=O)c4ccccc34)cc2)c1 | 1.7
COc1cc2ccccc2cc1C(=O)N1CCCC(C(F)(F)F)C1 (stereo not given) | 4.0
O=C(NC1CCN(Cc2ccccc2)C1)c1cc(S(=O)(=O)N2CCOCC2)ccc1Cl (stereo not given) | -9.2
CC(C)NC(=O)N(C)C[C@H]1Oc2c(NC(=O)C3CC3)cccc2C(=O)N([C@H](C)CO)C[C@@H]1C | 4.1
Cc1c(NC(=O)COC(=O)CSc2ccc([N+](=O)[O-])cc2)c(=O)n(-c2ccccc2)n1C | 0.8
O=C(CCNC(=O)c1ccco1)NCCN1C(=O)S/C(=C\c2ccc(F)cc2)C1=O | -5.4
CCOC(=O)C1=C(COC(=O)CCOc2ccc(OC)cc2)NC(=O)NC1C (stereo not given) | 1.3
S=C(NCc1ccccc1)N1CCN(C(=S)NCc2ccccc2)CC1 | -1.0
O=C(Nc1ccc(Cl)c(S(=O)(=O)N2CCCCC2)c1)c1cnccn1 | -2.1
Cc1nnc(SCC2=C(C(=O)O)N3C(=O)C(NC(=O)Cc4ccccc4)C3SC2)s1 (stereo not given) | 40.3
COc1ccccc1-c1oc2ccccc2c1-c1ccccc1OC | -0.8
COc1ccc2oc(C(=O)OC(C)C(=O)N3CCC(C)CC3)c(C)c2c1 (stereo not given) | -9.7
CC(=O)c1ccc(S(=O)(=O)NCCC(=O)N2CCN(c3ccccn3)CC2)cc1 | 4.8
O=C(COc1ccc(Cl)cc1Cl)NCC1(N2CCOCC2)CCCCC1 | -0.6
Cc1ccc(C(=O)c2ccc(CC(=O)O)n2C)cc1 | -5.5
Cc1cc(C)cc(C(=O)NCC(=O)OCc2nc(N)nc(Nc3ccccc3C)n2)c1 | 1.7
COc1ccc(CCNC(=O)COC(=O)c2cc(S(=O)(=O)N3CCOCC3)ccc2C)cc1OC | -9.0
CN1C(=O)/C(=C/c2ccc(OCc3cccc(F)c3)cc2)NC1=S | 1.4
CC(OC(=O)c1cnccn1)C(=O)Nc1nc(-c2cccc([N+](=O)[O-])c2)cs1 (stereo not given) | 3.6
O=C(NNC(=O)c1ccccc1-n1cccc1)c1cncc(Br)c1 | 4.6
CN(C(=O)CN1C(=O)NC2(CCCc3ccccc32)C1=O)C1CCCCC1 (stereo not given) | -1.6
CN1CC(=O)N(CC(=O)NC2CCCCC2)C1=O | -7.5
O=C(Nc1cc(S(=O)(=O)N2CCCCC2)ccc1Cl)c1ccc(F)cc1 | -3.5
C[C@H](CO)N1C[C@H](C)[C@@H](CN(C)Cc2ccc(Cl)c(Cl)c2)Oc2c(NC(=O)Cc3ccccc3)cccc2C1=O | -5.0
CCOC(=O)C1CCN(C(=O)COC(=O)CNC(=O)c2sc3ccccc3c2Cl)CC1 | -5.3
Cc1noc(C)c1COc1ccc(C(=O)Nc2nnc(CC(C)C)s2)cc1 | -0.3
C=CCn1c(SCC(=O)N(CC)C2CCS(=O)(=O)C2)nnc1-c1ccccc1 (stereo not given) | 1.2

Reformatted: entries from further up
CC(C)NC(=O)N(C)C[C@H]1Oc2c(NC(=O)C3CC3)cccc2C(=O)N([C@H](C)CO)C[C@@H]1C
  Mtb bLac sens: 4.1

Cc1c(NC(=O)COC(=O)CSc2ccc([N+](=O)[O-])cc2)c(=O)n(-c2ccccc2)n1C
  Mtb bLac sens: 0.8

Continuation.
SMILES | Mtb bLac sens
CCC[C@@H](CN1CCC[C@H]1CN1C(N)=NC[C@H]1CC(C)C)N1C[C@@H]([C@H](C)CC)N(CCCC2CCCC2)C1=N | 100.0
CC(C)N(C(=O)[C@H]1CC(CC(=O)NCc2cccc(C(F)(F)F)c2)C(=O)N2CCc3c([nH]c4ccccc34)[C@]12C)C(C)C (stereo not given in full) | -8.0
COC(=O)c1cc(NC(=O)CC2CCCC2)cc(C(=O)OC)c1 | -7.3
O=C(Nc1cccc(S(=O)(=O)NC2=NCCC2)c1)c1ccc(F)cc1 | -5.0
COc1ccc(/C=C/C(=O)OCC(=O)N2CCc3ccccc32)cc1 | 0.6
CCCOc1ccc(/C=N/NC(=O)c2c(-c3ccccc3)noc2C)cc1OC | ?
NC(=O)c1ccsc1NC(=O)c1ccc([N+](=O)[O-])o1 | 100.1
O=C(COC(=O)c1ccc(Br)o1)Nc1ccc(N2CCOCC2)cc1 | 3.4
CCn1c(SCC(=O)Nc2oc(C)c3c(C)n[nH]c(=O)c23)nc2sc(C)c(C)c2c1=O | -3.8
O=C(CN1C(=O)NC2(CCCCCC2)C1=O)N1CCN(c2ccccc2)CC1 | -5.4
COc1ccc(N2CCN(c3nccs3)CC2)cc1 | -7.2
CC(Sc1nnc(-c2ccco2)n1N)C(=O)NC1CCCCC1C (stereo not given) | -6.2
Cc1cccc(OCC(=O)NNC(=O)c2cc(S(=O)(=O)N(C)C)ccc2N2CCCC2)c1 | -0.8
O=S(=O)(c1ccc(SCc2cccc(Cl)c2)nc1)N1CCCC1 | -1.9
Cc1cc(NC(=O)C(C)SCC(=O)N(C)CC(=O)Nc2ccc(F)cc2)no1 (stereo not given) | -2.1
CNC(C)Cc1ccccc1 (stereo not given) | -4.4
O=C(COC(=O)Cc1ccc(Br)cc1)NC1CCCC1 | -0.7
CCOCc1c(C(=O)Nc2ccc3nc(N4CCOCC4)sc3c2)oc2ccccc12 | 2.4
Cc1ccc(NC(=O)c2cccc(S(=O)(=O)N3CCCc4ccccc43)c2)nc1 | -3.6
COc1cccc(NC(=O)CN(C)C(=O)CSc2ccc3c(c2)OCCO3)c1 | -6.8
COc1ccc(C(=O)COC(=O)c2ccccn2)cc1OC | 6.9
Cc1noc(C)c1NC(=O)N(C)C[C@H]1Oc2ccc(NC(=O)Cn3cnnn3)cc2C(=O)N([C@H](C)CO)C[C@@H]1C | -7.3
O=C(NNC(=O)c1ccc2ccccc2n1)c1ccc(O)cc1 | 63.6
COc1ccc(NC(=O)COC(=O)Cc2coc3cc(OC)ccc23)c(OC)c1 | -4.8
CC1(C)CC2CC(C)(CN2C(=O)COC(=O)c2cccc(O)c2)C1 (stereo not given) | -9.2
COc1ccc(S(=O)(=O)Nc2cccc3c2O[C@@H](CN(C)Cc2ccc(C(=O)O)cc2)[C@@H](C)CN([C@H](C)CO)C3=O)cc1 | -1.8
Cc1nn(C)c(C(=O)Nc2cccc(Nc3ccccc3)c2)c1[N+](=O)[O-] | ?
COc1cc(OC)cc(C(=O)N[C@H](C(=O)NNC(=O)c2ccc(Br)cc2)C(C)C)c1 | -5.2
N#Cc1ccc(C(=O)NC(=S)NC2CCCCC2)cc1 | -3.7
O=C(COc1ccc(-c2ccccc2)cc1)NNC(=O)Nc1ccccc1 | -0.8
Cc1cccc(NC(=O)c2nc[nH]c2C(=O)N[C@@H](C)c2ccccc2)c1 | 99.4
COc1ccc(N2CCN(C(=O)COC(=O)CNC(=O)c3cccc(OC(F)F)c3)CC2)cc1 | 5.1
O=CNCc1nc2ccccc2n1CCc1ccccc1 | -12.1
COc1ccc(C(=O)OCC(=O)NCc2ccc3c(c2)OCO3)cc1S(=O)(=O)N1CCOCC1 | 0.0
Cc1ccc(S(=O)(=O)N2CCN(C(=O)COC(=O)c3cccc(Cl)c3)CC2)c(C)c1 | -2.8
O=C(C[C@H]1C/C=C\C[C@H](NC(=O)OCC2c3ccccc3-c3ccccc32)C(=O)OC[C@@H]2CCCN2C1=O)N[C@H](CO)Cc1ccccc1 | -6.8
Nc1ccccc1S(N)(=O)=O | -5.4
Cn1cc(CN2CCCC(C(=O)Nc3cccc(-c4cc5ccccc5[nH]4)c3)C2)cn1 (stereo not given) | ?
CCOC(=O)[C@@H]1[C@H]2COc3ccccc3[C@@H]2N2C(=O)N(c3cccc(C)c3)C(=O)[C@@]12C | -5.5
CCC(CO)Oc1cc(NCc2cccc(OC)c2)c2ncn(C(C)C)c2c1 (stereo not given) | -12.8
C[C@@H]1COC(=O)[C@H](Cc2ccc(F)cc2)C/C=C\C[C@@H](CC(=O)N[C@H](CO)Cc2ccccc2)C(=O)N1 | -11.3
O=[N+]([O-])c1cc([As](=O)(O)O)ccc1O | 0.1
CCCN(CC(=O)Nc1ccccc1OC)C(=O)Cn1[nH]c(=O)c2ccccc2c1=O | -3.8
CCc1ccc(C(=O)NNC(=O)CN2C(=O)NC3(CCCC3)C2=O)cc1 | -5.8
O=C(COC(=O)c1ccccn1)Nc1ccc2c(c1)OCCO2 | 5.6
Cc1ccc(S(=O)(=O)N2CCOCC2)cc1C(=O)NC1=NCCS1 | -8.1
N#Cc1ccccc1OCC(=O)OCC(=O)N1CCCC1 | 7.2
O=C(Cn1ccc(NC(=O)OCc2ccccc2)nc1=O)NCCN1CCOCC1 | 2.1
COC(=O)[C@]1(Cc2ccccc2)N[C@H](CN(C)S(=O)(=O)c2ccc(C(C)(C)C)cc2)[C@@H]2C(=O)N(C)C(=O)[C@@H]21 | -7.0
Cc1ccccc1N1CCN(S(=O)(=O)C[C@]23CCC(CC2NC(=O)[C@@H](N)CCS(C)(=O)=O)C3(C)C)CC1 (stereo not given in full) | -5.5
O=C(COc1ccccc1C(=O)O)Nc1cccc2ccccc12 | -4.0
Cc1cccnc1NC(=O)c1ccc(OCC2CCCO2)cc1 (stereo not given) | -1.4
CC[C@H](C)/C=C(C)/C=C/C1=CC2=C(Cl)C(=O)[C@](C)(OC(C)=O)C(=O)C2=CO1 | 5.7
CNC(=O)Cn1nc(C)c(S(=O)(=O)N2CCOCC2)c1C | -1.5
C=CCN1C(=O)C(=O)N(CC(=O)NCC(=O)Nc2ccc(F)c(F)c2F)C1=O | -5.1
CS(=O)(=O)c1ccc(C(=O)N2CC(=O)Nc3ccccc32)cc1 | -1.5
O=C(CCN=C1NS(=O)(=O)c2ccccc21)Nc1ccc(Cl)cc1F | -10.9
C[C@H](CO)N1C[C@H](C)[C@@H](CN(C)Cc2ccc(Oc3ccccc3)cc2)Oc2c(NC(=O)C3CC3)cccc2C1=O | 15.4
CSc1ncccc1C(=O)Nc1cccc(S(=O)(=O)N2CCCCCC2)c1 | -3.1
COc1ccccc1-c1nnc(SCC(=O)NC2CC2)n1C | 2.0

The last five records of the section above come first, to join the parts.
SMILES | Mtb bLac sens
CS(=O)(=O)c1ccc(C(=O)N2CC(=O)Nc3ccccc32)cc1 | -1.5
O=C(CCN=C1NS(=O)(=O)c2ccccc21)Nc1ccc(Cl)cc1F | -10.9
C[C@H](CO)N1C[C@H](C)[C@@H](CN(C)Cc2ccc(Oc3ccccc3)cc2)Oc2c(NC(=O)C3CC3)cccc2C1=O | 15.4
CSc1ncccc1C(=O)Nc1cccc(S(=O)(=O)N2CCCCCC2)c1 | -3.1
COc1ccccc1-c1nnc(SCC(=O)NC2CC2)n1C | 2.0
Cc1cc(NC(=O)CSCC(=O)NC(C)c2ccccc2)no1 (stereo not given) | 2.6
CC(=O)N1CCN(S(=O)(=O)c2ccc3c(c2)CC(=O)N3)CC1 | -0.6
CCOC(=O)[C@@H]1[C@H]2COc3ccc(Br)cc3[C@@H]2N2C(=O)N(c3cccc(Cl)c3)C(=O)[C@@]12C | -0.1
COc1ccc(C(=O)CN(CCC(=O)O)S(=O)(=O)c2ccc([N+](=O)[O-])cc2)cc1 | 1.4
CC(OC(=O)c1ccccn1)C(=O)Nc1ccc(C(F)(F)F)cc1 (stereo not given) | 4.3
CCN(CC)S(=O)(=O)c1ccc(C(=O)NCC2(N3CCOCC3)CCCCC2)cc1 | -4.0
NS(=O)(=O)c1ccc(CCNS(=O)(=O)Cc2ccc(Cl)cc2)cc1 | 5.0
COCCN(C(=O)c1ccccc1Oc1ccccc1)c1c(N)n(CC(C)C)c(=O)[nH]c1=O | -2.5
O=C(Nc1cccc(O)c1)C1CC(c2ccc(Cl)cc2)=NO1 (stereo not given) | -11.9
CCOC(=O)c1c(NC(=O)COC(=O)c2cnccn2)sc(C(=O)NC)c1C | 1.2
Cc1ccc(S(=O)(=O)N2CCC(C(=O)NCc3ccccc3CN3CCCC3)CC2)cc1 | 0.2
CC[C@H](OC(C)=O)C(C[C@H](C)N(C)C)(c1ccccc1)c1ccccc1 | -5.6
CC1CN(C(=O)c2cccc(S(=O)(=O)NCc3ccccc3)c2)CC(C)O1 (stereo not given) | 5.5
CCN(CC)CCn1c(SCC(=O)Nc2ccc3c(c2)CCC3)nc2ccccc2c1=O | 9.5
Cc1ccc(S(=O)(=O)NCC(=O)OC(C)C(=O)NC(=O)NC2CCCCC2)cc1C (stereo not given) | -12.3
Cc1cc(C)cc(NC(=O)COC(=O)CC2CCCC2)c1 | 1.2
CC(CN1CCCCC1)c1ccccc1 (stereo not given) | 1.0
COc1cccc(CC(=O)Nc2ncc(C)s2)c1 | 5.6
Cc1cc(C)c(C)c(S(=O)(=O)N2CCC(C(=O)OCC(=O)NC3CCS(=O)(=O)C3)CC2)c1C (stereo not given) | -3.8
CC(C)(C)[C@]1(O)C[C@@H]2OC(=O)C[C@@]23C(=O)O[C@@H]2OC(=O)[C@@H](O)C213 (stereo not given in full) | 5.8
O=C(CSc1nnnn1C1CC1)Nc1ccc(S(=O)(=O)N2CCOCC2)cc1 | -2.1
O=C(Cc1ccc(Br)cc1)OCC(=O)N1CCCCCC1 | -1.6
COc1cc(OC)cc(C(=O)NC(C(=O)Nc2ccc3c(c2)OCO3)C(C)C)c1 (stereo not given) | -6.0

High-throughput results deposited in PubChem BioAssay by Southern Research Specialized Biocontainment Screening Center.
